MgrA-DNA mod = alters Staphylococcus aureus MgrA binding to DNA; fluorescence polarization; inhibition, %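 (about 10 µg/mL by stock and volumes)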; 84,000 tested, 0.13% active;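 active = above 50% in either of two replicates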;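 note: 0% = protein plus DNA without compound and 100% = DNA alone without protein; higher means less MgrA bound to DNA so lower polarization; one replicate is shown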
S aureus helic = blocks Staphylococcus aureus DNA helicase | purified S. aureus helicase, fluorescence unwinding assay; about half of the hits fall short of the stated cut | inhibition, %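 (tested at about 80 µM)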 | 120,000 tested, 0.05% active | AID 485395;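 active = both duplicates at 50% or more, or one of them with a favoured structure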;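 note: 0% = mean of negative control wells and 100% = mean of positive control wells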
* hit, by the source's call; / = no result given. These rows are one share of the data; the hit share may differ from the screen's.

SMILES | MgrA-DNA mod | S aureus helic
O=S(=O)(c1ccccc1)c1nc(-c2ccccc2)oc1N1CCCC1 | 0.8 | 8.0
N#Cc1cc2cc3c(cc2nc1SCC(=O)N1CCN(c2ccc(F)cc2)CC1)OCCO3 | 9.8 | -2.0
C=CCc1c(C)c(C#N)c2nc3ccccc3n2c1NCCc1ccc(OC)c(OC)c1 | 2.0 | -16.0
O=C(Nc1nnc(-c2ccccc2)o1)c1nc2ccccc2s1 | / | 16.0
COc1ccc(S(=O)(=O)N2CCN(CC(=O)Nc3ccc(OC)cc3OC)CC2)cc1 | / | 2.0
CC1CCN(C(=O)CSc2nc3ccccc3c(=O)[nH]2)CC1 | -2.3 | 7.0
COc1cc2nc(N=C(N)N)[nH]c(=O)c2cc1OC | -0.1 | 15.0
CCCCC(=O)C1C(=O)CC(c2ccccc2)CC1=O (stereo unspecified) | 1.4 | 3.0
CCN(C(=O)CSc1ncccc1C(=O)OC(C)C)c1cccc(C)c1 | 1.9 | -6.0
COC(=O)c1cccc(CN2C(=O)CSC2=O)c1 | -2.6 | /
COC(OC)c1ccc(C#N)c(SCC#N)n1 | 0.5 | /
c1ccc(Nc2nc(-c3ccccc3)nc3ccccc23)cc1 | -0.8 | 5.0
COC(=S)Nc1c(Br)cc(C)cc1Br | -2.1 | /
CN1CCN(CC(=O)Nc2ccccc2)CC1 | 1.0 | 13.0
O=C(O/N=C1\CCCCC1Cn1ccnc1)c1ccc(Cl)cc1 (stereo unspecified) | / | 10.0
O=c1c(Cc2cc(Cl)cc(Cl)c2O)c(O)nc2n1CCCS2 | 4.7 | -3.0
Cc1cc(NC(=O)CSc2nc3nccnc3c(=O)n2Cc2ccccc2)n[nH]1 | 0.9 | -8.0
CCc1cccc2c1=NC(=O)C=2c1c(C)[nH]n(-c2ccccc2)c1=O | 10.0 | 12.0
O=C(O)CC1S/C(=N/N=C2\CSC(=O)N2)NC1=O (stereo unspecified) | / | -6.0
CCCOC(=O)COc1ccc2c3c(c(=O)oc2c1)CCC3 | / | 9.0
CC(=O)Nc1ccc(Cl)c(Cl)c1 | -0.1 | /
Cc1ccc(C(=O)Cn2c3ccccc3n3ncnc23)cc1 | 0.1 | 15.0
Cc1nn(-c2ccccc2)nc1C(=O)Nc1nnc(C2CC2)s1 | 1.3 | /
O=C1Nc2ccccc2/C1=C/c1cccnc1 | / | 4.0
CC(=O)N1c2ccc(S(=O)(=O)N3CCCC3C(=O)NCc3ccc4c(c3)OCO4)cc2CC1C (stereo unspecified) | / | -28.0
SMILES | MgrA-DNA mod | S aureus helic
CSc1sc(C(=O)c2ccc(Cl)cc2)c2c1C(=O)CCC2 | -2.8 | /
COc1ccc(CN2CCCC2)cc1OC | 1.9 | 14.0
C/C(=N\NC(=O)c1ccc(N)cc1)C(C)(C)C | 0.4 | 13.0
CC1CNc2ccccc2NC1=O (stereo unspecified) | 1.8 | 7.0
CC(C)(C)c1ccc(C(=O)NC2CC3CCC2(C)C3(C)C)cc1 (stereo unspecified) | -2.8 | /
COc1ccc(NC(=O)CSc2ncnc3c2oc2ccccc23)cc1 | / | 15.0
O=C(O)CC(CC(=O)Nc1ccc(Oc2ccc(Cl)cc2)cc1)c1ccccc1 (stereo unspecified) | 2.8 | /
CCOC(=O)C1CCN(C(=O)Cn2cc(C(=O)c3ccco3)c3ccccc32)CC1 | -0.9 | 11.0
CCOC(=O)C1CCN(C(=O)c2ccc3c(c2)NC(=O)C(CS(=O)(=O)Cc2ccccc2Cl)N3)CC1 (stereo unspecified) | / | -31.0
O=c1c2cc3c(cc2[nH]c(=S)n1CCN1CCOCC1)OCO3 | / | -4.0
N#CCSc1ccccc1NC(=O)COC(=O)Cc1c[nH]c2ccccc12 | / | -78.0
O=c1c2cnn(CCO)c2ncn1Cc1ccc(F)cc1 | / | 1.0
CNC(=O)c1cc(S(=O)(=O)Nc2ccc3c(c2)OCCO3)ccc1C | -1.1 | -1.0
CS(=O)(=O)NC1CCN(Cc2ccccc2)CC1 | -0.2 | -4.0
CC(C)(C)c1ccc(C(=O)c2ccc3c(c2)CCC3)cc1 | 0.6 | /
O=C1c2cccc3cccc(c23)C(=O)N1c1ccc(O)cc1 | / | -11.0
O=C(NC1CCCCNC1=O)c1csc2ccccc12 (stereo unspecified) | -1.4 | /
Cc1c(Cl)cccc1N=C1NN=C(c2c(N)n(C)c(=O)[nH]c2=O)CS1 | / | 1.0
N=C1N=C2C=CC=CN2C(=O)/C1=C\c1ccccc1 | / | 9.0
Cc1noc(C)c1COc1ccc(CC(=O)N(C)Cc2ccc3c(c2)OCO3)cc1 | / | 17.0
Cc1ccc(OC(=O)NC2(C(F)(F)F)OCCO2)cc1 | -0.6 | 3.0
O=C(COc1ccccc1)NS(=O)(=O)c1ccccc1 | 0.7 | 1.0
CCOC(=O)C1=C(C)OC(N)=C(C#N)C1c1c(C)nn(-c2ccccc2)c1Cl (stereo unspecified) | 6.0 | /
Cn1c(C(=O)O)ccc1S(=O)(=O)N(Cc1ccccn1)Cc1ccccn1 | / | -16.0
O=C(NCC(=O)N1CCc2ccccc21)c1ccccc1Cl | / | 10.0
SMILES | MgrA-DNA mod | S aureus helic
N=C1C(c2nc3ccccc3s2)=C(O)CN1/N=C/c1ccc(O)c(O)c1O | / | -36.0
Cc1onc(-c2ccccc2Cl)c1C(=O)N1CCCC1 | 2.8 | 5.0
CCOC(=O)C1=C(C)N=c2s/c(=C\c3ccc(OC)cc3)c(=O)n2C1c1ccc(OC)c(OC)c1 (stereo unspecified) | -0.2 | /
COc1ccc(-c2cc(N)n(S(=O)(=O)Cc3ccccc3)n2)cc1 | -0.7 | 7.0
COC(=O)c1ccc(C(=O)OC)c(NC(=O)Cn2nc(C(F)(F)F)cc2C)c1 | 2.1 | 13.0
CSCc1ccc2oc(C(=O)O)cc2c1 | / | -2.0
N#CCCN(C1CCCCC1)S(=O)(=O)c1ccc(Cl)cc1 | / | 24.0
CCC1CCCCN1C(=O)c1cc2ccccc2oc1=O (stereo unspecified) | -1.8 | 4.0
O=C(CCc1n[nH]c(=O)[nH]c1=O)NCc1ccccc1 | / | 20.0
CC1CCc2sc(-c3nnc(SCC4CCOCO4)o3)cc2C1 (stereo unspecified) | / | 10.0
CC(C)COc1ccc(OCC(C)C)c(N)c1 | -5.4 | 12.0
CCCN1N=C(C(C)(C)C)Cn2c1nc1c2c(=O)n(CCC)c(=O)n1C | / | -1.0
COc1ccc2c(c1)sc(=NC(=O)COCC(=O)N=c1sc3cc(OC)ccc3n1C)n2C | / | -19.0
O=C(CSc1nnnn1Cc1ccccc1)n1c2c(c3c1CCCC3)CCCC2 | 1.6 | -8.0
O=C(c1cccs1)N(Cc1ccc(Br)cc1)c1ccc(F)cc1 | -1.7 | /
Cc1ccn(CCC(=O)NCCc2ccccc2)n1 | / | 3.0
Clc1ccc(SCc2cn3cccnc3n2)cc1 | / | -24.0
COc1nc(NCCc2ccc(OC)c(OC)c2)nc(N2CCC(Cc3ccccc3)CC2)n1 | / | -20.0
N#Cc1ccc(C23CC4CC(CC(C4)C2)C3)nc1SCc1ccccn1 | 1.9 | 13.0
O=C(O)CCC(=O)Nc1cc(Cl)ccc1Cl | -1.9 | -17.0
CCOC(=O)c1cn(-c2nonc2N)nn1 | / | 5.0
COc1ccc(C2C(C(=O)OCC(=O)N3CCCCC3)CCC(=O)N2c2ccc(OC)cc2)cc1 (stereo unspecified) | / | 13.0
O=C(COC(=O)/C=C/c1ccccc1Cl)Nc1cccnc1Cl | 0.7 | -10.0
CCCCC(=O)Nc1c2c(nn1C(C)(C)C)CS(=O)C2 (stereo unspecified) | 0.8 | 8.0
CCOC(=O)CS(=O)(=O)c1nc2c(c(C(F)(F)F)n1)CCc1ccccc1-2 | 2.0 | -8.0

A second format for 3 compounds above:
Order of results – MgrA-DNA mod, S aureus helic
COC(=O)c1ccc(C(=O)OC)c(NC(=O)Cn2nc(C(F)(F)F)cc2C)c1
→ 2.1, 13.0
CSCc1ccc2oc(C(=O)O)cc2c1
→ /, -2.0
N#CCCN(C1CCCCC1)S(=O)(=O)c1ccc(Cl)cc1
→ /, 24.0

(listing goes on)
SMILES | MgrA-DNA mod | S aureus helic
CC(C)Cn1nccc1N | / | -4.0
CC1(C)C2CCC1(C)C(NC(=O)C1COc3ccccc3O1)C2 (stereo unspecified) | / | -10.0
CC1(C)CC(=O)C(CC(=O)Nc2ccc(S(N)(=O)=O)cc2)=C(O)C1 | / | 5.0
COC(=O)C1=C(C)N(C)C(=O)/C1=C\c1ccccc1 | 1.4 | 4.0
Cc1occc1C(=O)Nc1ccccc1Cc1ccccc1 | 1.3 | 6.0
Nc1nc(SCc2ccc(Cl)cc2Cl)ns1 | / | 7.0
Cc1sc(NC(=O)/C=C/c2cccs2)c(C#N)c1C | / | -2.0
Cc1nc(C)c(C(=O)NCc2ccc3c(c2)OCO3)s1 | / | -15.0
COC(=O)c1cccc(NC(=O)C=C(C)C)c1 | -0.6 | 7.0
CCOC(=O)CSc1nnc(-c2cccc(OC)c2)n1-c1ccccc1 | -0.2 | /
COc1ccc(C2(CNC(=O)C(c3ccccc3)c3ccccc3)CCOCC2)cc1 | 0.4 | 14.0
CCOC(=O)c1cc(=O)c2ccc(OCC(=O)Nc3ccccc3)cc2o1 | -0.1 | /
Cc1noc(C)c1COC(=O)c1ccccc1NC(=O)Cc1ccccc1 | / | -8.0
O=C(Cc1cccc(CC(=O)c2ccccc2)c1)c1ccccc1 | 0.8 | /
COc1ccccc1N1CCN(C(=O)/C=C/c2c(C)nn(-c3ccccc3)c2C)CC1 | / | -1.0
Cc1cccc(C(=O)OCC(=O)N2CCCC(C)C2)c1 (stereo unspecified) | / | -10.0
COC(=O)c1cc(NC(=O)CNc2cc(NC(C)=O)ccc2OC)cc(C(=O)OC)c1 | / | 15.0
Cc1cccc(NC(=O)C2CC(=O)NC(=Nc3ccccc3)S2)c1 (stereo unspecified) | / | 3.0
COCCNC(=O)Cc1ccc(F)cc1 | -0.4 | 22.0
Cc1nc2cc(C(=O)Nc3ccccc3O)ccc2n1-c1ccccc1 | / | 7.0
CCOC(=O)c1nnn2c1nc(SCc1ccc(F)cc1)c1ccccc12 | 0.3 | /
CCn1cnc2c(cnn2-c2ccccc2)c1=O | -3.1 | 18.0
O=C(OCC(=O)N(c1ccccc1)C1CCCCC1)c1ccc(CO)cc1 | / | 10.0
CNS(=O)(=O)c1ccc(C)cc1 | 0.1 | 21.0
CCN(S(=O)(=O)c1ccc(F)cc1)S(=O)(=O)c1c(C)c(C)c(C)c(C)c1C | -0.9 | /

Complete entries, quoted from the list:
COc1ccc(NC(=O)CSc2ncnc3c2oc2ccccc23)cc1 reads MgrA-DNA mod = /; S aureus helic = 15.0
O=c1c2cnn(CCO)c2ncn1Cc1ccc(F)cc1 reads MgrA-DNA mod = /; S aureus helic = 1.0

Continued.
SMILES | MgrA-DNA mod | S aureus helic
COc1ccccc1N1CC(C(=O)N2CCN(S(=O)(=O)c3cccs3)CC2)CC1=O (stereo unspecified) | / | 22.0
NS(=O)(=O)c1ccc(CCNC(=O)C2Cc3ccccc3CN2C(=O)c2ccco2)cc1 (stereo unspecified) | / | -17.0
Cc1c(O)ccc2c(CN(C)Cc3ccc(Cl)cc3)cc(=O)oc12 | / | -8.0
O=C(CSc1nnnn1-c1ccccc1)N1CCCCC1 | / | 10.0
Cc1ccccc1C(=O)c1cccn1CC(=O)NCC1CCCO1 (stereo unspecified) | / | 6.0
CS(=O)(=O)N(CC(=O)NCc1ccncc1)c1ccccc1 | 0.9 | -4.0
CCn1c(CNC(=O)c2cccc(C)c2)nnc1SCC(=O)N1CCc2ccccc21 | -0.1 | -3.0
COC(=O)/C(C#N)=C/c1cccc(/C=C(\C#N)C(=O)OC)c1 | / | 12.0
CC(C)NC(=O)c1cc(-c2ccc(O)cc2)on1 | 4.4 | 9.0
CCOC(=O)c1c(C=O)oc2c(C)cc(OC(=O)c3ccc(S(=O)(=O)N4CCCCC4)cc3)c(Br)c12 | -0.4 | /
Cc1ccc(Cl)cc1N1CCN(Cn2sc3ccccc3c2=O)CC1 | / | 2.0
CCOc1ccc(-c2cn3c(n2)sc2cc(C(=O)N4CCN(C)CC4)ccc23)cc1 | -2.4 | 0.0
O=C(O)CCCNc1nc2ccccc2s1 | / | 11.0
CC(C)(C)c1cc(N)nc(N)n1 | -1.8 | /
C[N+](C)(C)CCO | -0.7 | /
Cc1ccc(C(=O)N(C)Cc2nc3ccccc3c(=O)[nH]2)c(O)c1 | / | -11.0
CCCc1cc(=O)oc2cc(OCC(=O)O)ccc12 | / | 25.0
CC(NC(=O)CSc1ccccc1Cl)C1CC2CCC1C2 (stereo unspecified) | -1.6 | 9.0
CCC(C)c1ccccc1OCCCCN1CCN(C)CC1 (stereo unspecified) | -3.9 | 5.0
CCOC(=O)c1ccc(Nc2nc3nonc3nc2NC(C)C)cc1 | -0.3 | /
Cc1ccc2c(c1)CCCN2C(=O)CC1OC(=O)c2ccccc21 (stereo unspecified) | / | -3.0
O=C(NCCN1CCOCC1)c1cccc(S(=O)(=O)Nc2ccccc2F)c1 | / | -2.0
Cc1cc(N2C(=O)CSC2c2cccnc2)ccc1Br (stereo unspecified) | -2.3 | /
CCCS(=O)(=O)c1c(C)c(C)n(Cc2ccc(C(F)(F)F)cc2)c1N | -2.1 | /
O=C1OC(C(F)(F)F)N=C1c1ccccc1 (stereo unspecified) | -2.6 | /
CCOc1cc(C=C2C(=O)OC(C)(C(C)(C)C)OC2=O)ccc1O (stereo unspecified) | / | -21.0

Reformatted: 3 of the compounds above.
> Cc1c(Cl)cccc1N=C1NN=C(c2c(N)n(C)c(=O)[nH]c2=O)CS1
  MgrA-DNA mod: /; S aureus helic: 1.0

> O=c1c(Cc2cc(Cl)cc(Cl)c2O)c(O)nc2n1CCCS2
  MgrA-DNA mod: 4.7; S aureus helic: -3.0

> CCOC(=O)CSc1nnc(-c2cccc(OC)c2)n1-c1ccccc1
  MgrA-DNA mod: -0.2; S aureus helic: /

Source: PubChem (ICCB-Longwood Screening Facility, Harvard Medical School)
